High-throughput results (PubChem)
AF4-AF9 inh – MLL-AF4/AF9 protein interaction inhibition; 0.47% of 350,000 active; inhibition, % at 10 µM; P42568; AlphaScreen, biotin-AF4 peptide binding to FLAG-AF9;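 active means every replicate reaching a set inhibition limit, whatever the replicate mean, cut at about 25% in these data; inconclusive means mean inhibition reaches that limit but some replicates miss it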;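 further: 0% = plate neutral control median and 100% = total signal loss; the record names both 10 and 1 µM as test concentration; the first replicate is given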
Target sequence (P42568 whole entry, looked up): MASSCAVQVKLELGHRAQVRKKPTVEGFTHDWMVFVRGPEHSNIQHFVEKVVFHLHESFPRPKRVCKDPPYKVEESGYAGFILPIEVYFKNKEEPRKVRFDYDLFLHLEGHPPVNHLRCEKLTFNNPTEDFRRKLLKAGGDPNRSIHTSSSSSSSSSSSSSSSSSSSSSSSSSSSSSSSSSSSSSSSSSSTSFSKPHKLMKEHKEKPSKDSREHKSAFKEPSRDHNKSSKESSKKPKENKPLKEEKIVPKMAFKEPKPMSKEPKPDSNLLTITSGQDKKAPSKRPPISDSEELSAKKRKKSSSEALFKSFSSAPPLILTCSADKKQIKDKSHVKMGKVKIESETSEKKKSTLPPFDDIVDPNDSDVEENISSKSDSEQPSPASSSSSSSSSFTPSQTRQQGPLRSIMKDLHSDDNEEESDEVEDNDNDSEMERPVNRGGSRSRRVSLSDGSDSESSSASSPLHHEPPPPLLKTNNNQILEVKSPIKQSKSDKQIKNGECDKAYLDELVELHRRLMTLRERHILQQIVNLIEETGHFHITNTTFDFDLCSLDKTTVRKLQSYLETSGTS
T cruzi inh – T. cruzi replication inhibition; T. cruzi beta-gal in NIH3T3, luminescence, 90 h; inhibition, % (test concentration not listed); 1.4% of 300,000 active;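 active means mean inhibition across valid replicates above about 55%, limit read from the data; inconclusive means mean below that limit but half or more replicates reach it; inactive means mean below it, under half of replicates reach it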;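 further: signal also drops with host cell toxicity which is not excluded here; 0% = plate median of DMSO wells and 100% = zero luminescence signal; higher percent means less beta-gal luminescence so fewer parasites; stock transfer was 50 nL into about 50 µL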
UCH37 DUB inh – blocks the human deubiquitinase UCH37; 0.33% of 330,000 active; purified proteasome/UCH37, Ub-AMC cleavage fluorescence; Q9Y5K5; inhibition, % (concentration not given with the values);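 active means mean of two replicates above 20%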;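 further: 0% = compound-free wells with enzyme and 100% = wells lacking proteasome; stock transfer was 100 nL into about 20 µL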
Target sequence (Q9Y5K5 whole entry, looked up): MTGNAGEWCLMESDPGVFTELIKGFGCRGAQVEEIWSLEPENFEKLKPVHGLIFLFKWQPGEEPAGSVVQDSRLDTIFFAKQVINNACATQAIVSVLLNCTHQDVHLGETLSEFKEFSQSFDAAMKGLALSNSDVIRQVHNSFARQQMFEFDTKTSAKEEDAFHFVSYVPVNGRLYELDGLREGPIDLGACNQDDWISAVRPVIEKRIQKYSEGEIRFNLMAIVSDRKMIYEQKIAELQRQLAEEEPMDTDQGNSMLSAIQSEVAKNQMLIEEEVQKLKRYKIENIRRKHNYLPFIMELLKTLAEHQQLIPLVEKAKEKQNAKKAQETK
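Reagent: Ub-AMC substrate; assay system: Proteasome-associated human UCH37 deubiquitinase; controls: no-proteasome and no-compound wells; read-out: % inhibition of Ub-AMC cleavage fluorescence; timing: 30 min preincubation with enzyme, 25 min cleavage at room temperature; signal: AMC fluorescence from Ub-AMC cleavage, excitation 355 nm, emission 460 nm; buffer or medium: Tris-HCl pH 7.4 plus ovalbumin, ATP-MgCl2, DTT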
Bfl-1 A1 inh – inhibitors of the anti-apoptotic protein A1, read as caspase activation; MEF A1-2A-BIM cells, Caspase-Glo 3/7 luminescence, 3 h; percent of clofoctol response, vehicle zero; caspase activation, % (concentration not given with the values); 0.066% of 330,000 active; AID 2462;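 active means over half of replicate activation scores above 10%, or exactly half above 10 with the replicate mean above 10; inconclusive means replicate mean below 10 yet half the replicates above 10; inactive means over half of replicates below 10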;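 further: wells of about 30 µL received 50 nL stock; many hits fall short of the cut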
Ecoli growth – inhibitors of Escherichia coli growth | OD600, 23 h; stronger effect = lower value | 0.21% of 330,000 active | OD600 absorbance (no concentration beside the values);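 active means OD600 absorbance below the run mean of sample wells minus 3.6 SD, in any replicate, cut at about 0.56 in these data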;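 further: stock transfer was 300 nL into about 60 µL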
FGF22 binding – shifts melting point of recombinant human FGF22 | Q9HCT0 | recombinant FGF22 thermal shift, SYPRO orange fluorescence; percent of sucrose octasulfate shift, DMSO zero | calls only at 9.99 µM | 1.5% of 340,000 active | AID 651658;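 active means melting point raised past a set limit in the mean and every replicate; inconclusive means no clear call; three in four hits are not shown here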
Target sequence (Q9HCT0 whole entry, looked up): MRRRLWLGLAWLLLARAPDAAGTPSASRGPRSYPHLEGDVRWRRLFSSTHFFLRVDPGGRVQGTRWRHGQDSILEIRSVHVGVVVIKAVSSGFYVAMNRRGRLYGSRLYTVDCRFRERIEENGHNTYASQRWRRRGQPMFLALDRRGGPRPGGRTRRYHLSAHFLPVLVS
Ecoli rRNA inh – selective bacterial rRNA inhibition in E. coli | 1.6% of 350,000 active | GFP signal change (wild-type ribosome), % (test concentration not listed) | AID 720706 | E. coli WT GFP vs humanized-ribosome RFP mutants, fluorescence, 24 h; stronger effect = lower value; DMSO median 0, no signal -100;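 active means significant combined selectivity score with lowered wild-type GFP, culture density cut under 30%, mutant RFP and density less affected; inactive means any of these conditions unmet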; further: one replicate is shown; some compounds called inactive have numbers as strong as hits
Beta cell apopt – blocks beta cell apoptosis; INS-1E cytokine-induced death, ATP luminescence, 48 h; percent of positive-control rescue, neutral wells zero; protection from apoptosis, % (concentration not given with the values); 0.8% of 300,000 active; AID 435005;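 active means all replicates at 75% or more, or half of them and the mean; inconclusive means half reach 75% but not the mean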;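 further: 0% = cytokine-treated negative control wells and 100% = positive control rescue; higher means more ATP so stronger rescue from cytokine killing; wells of about 40 µL received 100 nL stock; the first replicate is given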
Ecoli rRNA inh OD600 – further read-out of Ecoli rRNA inh, marked with its call; OD600 change, %; measured here: OD600 growth;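 optical density of the mix in the first replicate; 0 = DMSO median and -100 = no signal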
Ecoli rRNA inh RFP – second read-out of Ecoli rRNA inh, no call of its own (marks repeat the call); RFP signal change, %; measured here: RFP humanized mutant strains;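 first replicate; 0 = DMSO median and -100 = no signal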
* = called active by the depositor; i = inactive; u = inconclusive; x = not tested or not shown. Only part of the results is shown (hit frequency here may not be typical).

Structure	AF4-AF9 inh	T cruzi inh	UCH37 DUB inh	Bfl-1 A1 inh	Ecoli growth	FGF22 binding	Ecoli rRNA inh	Ecoli rRNA inh OD600	Ecoli rRNA inh RFP	Beta cell apopt
CCOc1ccc(C(=O)N/N=C/c2cc([N+](=O)[O-])cs2)cc1	-2.3	-1	x	0.8	x	i	9	12	1.8	1
CC(=O)Nc1ccc(SCC(=O)Nc2ccc3c(c2)OCCO3)cc1	-1.8	x	8.8	0.5	0.69	i	1	1	-1.6	5
O=C(CSc1ccc2nnc(-c3ccccc3)n2n1)N1CCCCC1	-2.0	-1	-20	-0.2	0.73	i	-5	-18	-5.3	1
c1ccc(C[n+]2ccc3ccccc3c2)cc1	-2.2	x	3.5	0.6	0.69	i	-15	-1	-0.3	-3
Cc1nc(NCc2ccccc2)[nH]c(=O)c1CCC(C)C	x	-12	4.3	-0.2	0.69	x	x	x	x	6
CCn1c(SCC(=O)N/N=C\c2ccccc2OCC(=O)O)nnc1-c1ccc(Cl)cc1	1.4	1	x	0.5	x	i	9	11	-6.1	-13
COC(=O)c1c(C(=O)OC)c(-c2ccccc2)n2c1CCC2	-37	5	2.3	-0.2	0.7	i	-5	-7	-6.6	2
Cc1ccc2cc(CN(Cc3ccco3)C(=O)c3cccs3)c(=O)[nH]c2c1	x	5	-5.5	0.5	0.71	x	x	x	x	11
O=C(CSCc1nc2ccccc2[nH]1)Nc1ccc(Oc2ccccc2)cc1	x	-5	2.2	0.8	0.65	x	x	x	x	-2
Cc1cc(CNC(=O)CC2C(=O)NCCN2Cc2ccccc2)nn1C (centres undefined)	-3.8	-7	-6.9	0.5	0.72	i	3	2	-1.5	-1
CCOc1ccc(OCC(=O)OC(C)C(=O)NC2CCCCC2C)cc1 (centres undefined)	-0.3	x	-1.2	-0.2	0.68	i	3	3	-2.2	-11
COCCOC(=O)c1c(C)oc2ccc(OC(=O)COc3c(F)c(F)c(F)c(F)c3F)cc12	x	7	5.0	-0.5	0.7	x	x	x	x	-2
O=C(OCC(=O)c1ccccc1Cl)c1cnccn1	x	-16	3.6	-0.2	0.72	x	x	x	x	-1
CSc1ccc(S(=O)(=O)N2CCC(C(=O)Nc3ccc(NC(C)=O)cc3)CC2)cc1	-3.1	-11	2.7	0.4	0.71	i	3	10	-1.3	-1
COC(=O)C1CCN(C(=O)CCC2CCCCC2)CC1	x	0	1.0	-1.3	0.68	x	x	x	x	-5
COc1ccc(CNC2CCCCC2)cc1	x	-41	5.0	1.2	0.72	x	x	x	x	-3
CC(C)CC1CCCCC1OC(=O)C[N+]1(C)CCCCC1 (centres undefined)	-1.2	-1	3.7	2.4	0.66	i	-16	-12	1.5	9
O=P(Cc1cc(Br)cc(Br)c1OCCO)(c1ccccc1)c1ccccc1	3.0	2	x	-0.7	x	i	-33	-29	3.7	-1
CCCCN(C(=O)CCC(=O)Nc1cc(C)on1)C(C(=O)NC1CCCC1)c1ccc(OCC)cc1 (centres undefined)	-4.9	-4	-0.1	0.7	0.7	i	0	9	3.8	-2
CC(C)NC(=O)NC(=O)COC(=O)CCOc1ccccc1	x	-9	3.9	0.5	0.71	x	x	x	x	5

Arranged by heavy-atom count (rising): part of the list above
Structure	AF4-AF9 inh	T cruzi inh	UCH37 DUB inh	Bfl-1 A1 inh	Ecoli growth	FGF22 binding	Ecoli rRNA inh	Ecoli rRNA inh OD600	Ecoli rRNA inh RFP	Beta cell apopt
Cc1nc(NCc2ccccc2)[nH]c(=O)c1CCC(C)C	x	-12	4.3	-0.2	0.69	x	x	x	x	6
CCOc1ccc(C(=O)N/N=C/c2cc([N+](=O)[O-])cs2)cc1	-2.3	-1	x	0.8	x	i	9	12	1.8	1
CC(=O)Nc1ccc(SCC(=O)Nc2ccc3c(c2)OCCO3)cc1	-1.8	x	8.8	0.5	0.69	i	1	1	-1.6	5

(list continues)
Structure	AF4-AF9 inh	T cruzi inh	UCH37 DUB inh	Bfl-1 A1 inh	Ecoli growth	FGF22 binding	Ecoli rRNA inh	Ecoli rRNA inh OD600	Ecoli rRNA inh RFP	Beta cell apopt
O=C(CSc1nnnn1-c1ccc(O)cc1)c1cc2ccccc2o1	-1.2	5	0.1	-0.3	0.67	i	-30	-38	-0.8	-5
COc1cc(NC(=O)Cn2c(=O)n(-c3cccc(C)c3)c(=O)c3c(C)c(C)sc32)cc(OC)c1	-2.4	20	2.6	2.1	0.71	i	7	12	-4.7	12
CCCC(c1nnnn1C(C)(C)C)N1CCN(Cc2ccccc2)CC1 (centres undefined)	2.5	13	-1.6	1.1	0.64	i	8	7	9.7	-2
Fc1ccccc1NC(=S)NC1CCCC1	-5.7	-25	1.7	0.3	0.68	i	13	3	-0.9	x
Cc1nnsc1C(=O)Nc1ccc(Cl)cc1Cl	x	-8	3.7	0.3	0.67	x	x	x	x	2
O=[N+]([O-])c1cccnc1Sc1ccc(Cl)cc1	4.8	2	4.2	1.2	0.67	i	4	-2	-0.1	-7
O=C(O)c1cccc(S(=O)(=O)NCC2CCCO2)c1 (centres undefined)	x	-4	5.2	1.9	0.69	x	x	x	x	-5
CSc1ccc(CNCc2ccco2)cc1	3.3	-7	2.6	-0.9	0.66	i	-5	-1	0.3	-10
O=C(CNC(=O)c1ccccc1)OCc1nnc(-c2ccc(Cl)cc2)o1	-1.0	1	1.6	-0.2	0.69	i	9	12	3.2	-14
COc1ccc(CCN2CC(C(=O)NCc3nc4ccccc4n3C)CCC2=O)cc1 (centres undefined)	-1.3	13	0.4	-0.2	0.68	i	5	3	3.4	-2
O=C1CC(c2ccccc2)CC(O)=C1C=NCC1CCCO1 (centres undefined)	x	-4	-0.2	u	0.71	x	x	x	x	-2
CCOC(=O)[C@H]1[C@H]2COc3ccc(C)cc3[C@@H]2N2C(=O)c3ccccc3NC(=O)[C@@]12C	1.1	x	-3.6	-0.1	x	i	-10	-13	-8.9	0
Cc1ccc(C(=O)NC(C)c2ccncc2)o1 (centres undefined)	0.3	-23	0.9	0.1	0.7	i	3	4	2.6	0
CCCn1c(NCc2c[nH]c3ccccc23)nc2ccccc21	x	-12	6.2	0.1	0.68	x	x	x	x	-4
Cc1ccc(C2=CSC3=NCCN23)c(C)c1	x	-8	-2.5	-0.2	0.71	x	x	x	x	-1
CCC(=O)NC(O)C(=O)c1ccc(C)cc1 (centres undefined)	x	-3	1.3	1.5	0.73	x	x	x	x	-3
CCC(OC(=O)c1nsc(Cl)c1Cl)C(=O)NCc1ccco1 (centres undefined)	x	-18	1.8	-0.1	0.72	x	x	x	x	-2
Cc1nonc1OCCNCCNc1ccccc1[N+](=O)[O-]	4.3	5	5.7	0.6	0.69	i	4	5	-3.3	-6
C/C(=N/NC(=O)c1ccc(C)nc1)c1ccc2c(c1)CCCC2	-12	-18	x	0.6	x	x	2	8	-1.4	3
O=C(COc1ccccc1F)Nc1ccc2c(c1)OCCO2	2.4	-5	3.8	0.4	0.65	i	17	12	9.1	-1
CCOC(=O)c1c(NC(=O)COC(=O)c2nc(Cl)ccc2Cl)sc(C(=O)NC)c1C	0.1	0	-0.1	0.1	0.65	i	4	1	-0.9	2
COc1ccc(OC)c(NC(=O)COC(=O)CCc2ccc(S(=O)(=O)N3CCOCC3)cc2)c1	-5.7	x	-0.3	1.7	0.65	i	-1	-7	5.7	-1
Cc1cc(C)nc(NC(=O)COc2cc(Cl)cc(Cl)c2)n1	x	-15	-3.9	0.6	0.73	x	x	x	x	-3
COc1ccccc1Oc1nnnn1-c1ccc(C(N)=O)cc1	3.1	-7	3.0	0.0	0.67	i	-10	-9	-2.3	-3
CC(C)CC(=O)Nc1ccc(C(=O)COC(=O)Cc2n[nH]c(=O)c3ccccc23)cc1	0.5	x	-8.9	-0.2	0.66	i	-5	4	-0.7	0
O=C(COC(=O)C1CC1)Nc1ccc(Cl)cc1Cl	-4.4	x	1.3	-0.9	0.64	i	3	1	-2.6	-3
O=C(CN1CCN(S(=O)(=O)c2ccc(Cl)cc2)CC1)NC(=O)NC1CCCCC1	x	-2	1.2	0.2	0.7	x	x	x	x	1
Cc1ccc(C(=O)NC2CCN(CC(=O)Nc3c(C)cc(C)cc3C)CC2)cc1	-5.6	2	3.6	0.4	0.63	i	8	10	2.0	2
O=C(O)c1cc2ncc(CCO)cn2n1	-2.1	-29	-38	-0.4	0.7	i	10	17	11	x
Cc1cc(=O)oc2c(C)c(OCC(=O)NC3CCN(Cc4ccccc4)CC3)ccc12	-11	44	-22	1.0	0.68	i	-1	-2	-0.2	10
O=C(CCN1CCOCC1)N/N=C/c1cc(Br)cc(Br)c1O	9.9	-5	x	-1.7	x	i	-26	-25	-4.9	1
COC(=O)c1ccc(S(=O)(=O)c2ccc([N+](=O)[O-])cc2)cc1	-4.7	20	x	-1.0	x	i	5	9	-1.1	-9
CC(=O)OCC(=O)C12OC(C)(C)OC1CC1C3CC=C4CC(O)CCC4(C)C3CCC12C (centres undefined)	2.3	x	2.6	x	0.7	i	10	12	0.6	x
Cc1cc(C(=O)Nc2cc(S(C)(=O)=O)ccc2Cl)c(C)o1	-0.3	x	0.2	-0.3	0.71	i	6	11	2.8	-4
O=C(COC(=O)c1nc(Cl)ccc1Cl)NCc1ccc(Cl)cc1	-24	x	0.7	-0.2	0.65	i	-8	-2	1.9	-5
CCn1nnnc1NCc1ccc(OCc2c(F)cccc2Cl)c(OC)c1	-0.3	3	2.2	0.6	0.65	i	-6	2	3.1	-8
CC(=O)Nc1ccc(S(=O)(=O)N2CCN(c3nc4ccccc4n3CC(C)C)CC2)cc1	3.7	0	1.9	0.2	0.68	i	-21	-39	-6.3	-3
CCOC(=O)C1CCCN(C(=O)c2ccc(S(=O)(=O)Nc3ccccc3OC)cc2)C1 (centres undefined)	-0.3	x	1.1	0.2	0.7	i	-2	-1	-0.4	-2
CCOc1ncccc1C(=O)OCC(=O)Nc1cccc(C(C)=O)c1	x	1	0.2	0.7	0.68	x	x	x	x	-6
COc1ccc(-c2ccnc3nc(Sc4ncc(C(F)(F)F)cc4Cl)nn23)cc1	1.8	37	-363	-0.4	0.67	i	-11	-16	27	-4
Cc1ccc(S(=O)(=O)N2CCN(C(=O)C3CCCO3)CC2)cc1C (centres undefined)	-1.6	-3	-1.7	0.4	0.71	i	16	9	6.0	-4
CC(=O)Nc1sc(C)c(C)c1C(=O)OCC(=O)Nc1ccccc1	-0.5	x	2.7	0.6	0.69	i	9	26	-2.1	9
CCOC(=O)Cc1nnc(NC(=O)CCc2ccccc2)s1	-1.6	3	5.8	2.0	0.64	i	0	2	2.8	3
COc1ccc(-c2csc(NC(=S)NC(=O)c3ccco3)n2)cc1	2.4	0	3.9	-1.0	0.7	i	4	4	0.4	9
O=C(C1=C[C@@H](c2coc3ccccc3c2=O)C[C@@H](OCc2ccc(CO)cc2)O1)N1CCOCC1	1.1	-1	1.1	0.4	x	i	3	-9	-6.5	-3
